# High-throughput results from PubChem.
# Ecoli growth: E. coli growth inhibition. OD600 absorbance (test concentration not listed). Escherichia coli growth, OD600, 23 h; active compounds read low. AID 1053175. 0.21% of 330,000 active;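 active = OD600 absorbance below the run mean of sample wells minus 3.6 SD, in any replicate, cut at about 0.56 in these data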;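 note: stock transfer was 300 nL into about 60 µL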
# UCH37 inh: human UCH37 deubiquitinating enzyme inhibition; Q9Y5K5; purified proteasome/UCH37, Ub-AMC cleavage fluorescence; inhibition, % (concentration not given with the values); 0.33% of 330,000 active;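 active = mean of two replicates above 20%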;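 note: 0% = compound-free wells with enzyme and 100% = wells lacking proteasome; stock transfer was 100 nL into about 20 µL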
#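 system = Proteasome-associated human UCH37 deubiquitinase | amount = 0.15 nM proteasome as dispensed | medium = pH 7.4 Tris-HCl (50 mM) with ovalbumin, ATP-MgCl2, DTT | incubation = 30 min preincubation with enzyme, 25 min cleavage at room temperature | detection = AMC fluorescence 355/460 nm | read-out basis = percent inhibition | controls = no-proteasome and no-compound wells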
# LANA-H2A inh: blocks KSHV LANA binding to histone H2A/H2B; AID 2629; inhibition, % (concentration not given with the values); Q9QR71; cell-free LANA-H2A/H2B peptide, fluorescence polarization; 0.6% of 320,000 active; in the data active = inhibition mostly above about 10%, no sharp cut-off; inactive = mostly below about 6.7%;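 note: stock transfer was 7.5 nL into about 10 µL; 0% = median of vehicle wells and 100% = median of positive control wells; one replicate is shown; the record names a cut of 25% in any replicate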
# FGF22 binding: binders of recombinant human FGF22 by thermal shift; Q9HCT0; AID 651658; SYPRO orange fluorescence; percent of sucrose octasulfate shift, DMSO zero; 1.5% of 340,000 active; calls only at 9.99 µM;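 active = melting point raised past a set limit in the mean and every replicate; three in four hits are not shown here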
# Target sequence (Q9HCT0 whole entry, looked up): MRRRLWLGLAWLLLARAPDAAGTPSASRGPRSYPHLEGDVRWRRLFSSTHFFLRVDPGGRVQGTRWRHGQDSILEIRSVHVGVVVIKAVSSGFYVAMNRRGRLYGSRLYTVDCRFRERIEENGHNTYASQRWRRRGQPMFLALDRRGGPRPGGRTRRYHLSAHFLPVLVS
# HNF4A DNA FP: change in binding of human HNF4 alpha to DNA; HNF4a-FITC DNA binding, fluorescence polarization, 1 h; activity change, % at 10 µM; 0.3% of 360,000 active; AID 1224865; in the data active = activity change above about 30%, passing the limit was not always enough;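 note: controls were the assay level and a saturating level of protein; the project sought stronger binding though the title names inhibitors; some compounds called inactive have numbers as strong as hits; positive values seem to mean higher polarization but the record does not say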
# Target sequence (P41235 whole entry, looked up): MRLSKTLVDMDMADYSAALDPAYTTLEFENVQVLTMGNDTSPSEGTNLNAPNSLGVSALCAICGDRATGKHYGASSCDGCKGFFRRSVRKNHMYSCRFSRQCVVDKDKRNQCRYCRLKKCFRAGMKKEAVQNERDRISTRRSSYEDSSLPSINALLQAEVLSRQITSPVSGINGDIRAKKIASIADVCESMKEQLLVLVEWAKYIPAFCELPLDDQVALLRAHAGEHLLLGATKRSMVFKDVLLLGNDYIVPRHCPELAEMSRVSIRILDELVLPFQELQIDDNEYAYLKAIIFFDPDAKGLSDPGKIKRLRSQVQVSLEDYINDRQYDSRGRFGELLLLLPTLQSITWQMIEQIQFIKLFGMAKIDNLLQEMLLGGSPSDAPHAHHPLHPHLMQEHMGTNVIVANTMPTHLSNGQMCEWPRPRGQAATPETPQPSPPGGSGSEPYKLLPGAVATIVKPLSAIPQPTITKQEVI
# B2AR ag: activates human beta-2 adrenergic receptor causing internalization. P07550. Am2.2-beta2AR cells, FAP receptor internalization, flow cytometry; reference of the scale not given here. response, % (test concentration not listed). 0.43% of 340,000 active;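 active = response above a set limit, near 3 SD of response in nonfluorescent compounds, cut at about 42% in these data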;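 note: stock transfer was 100 nL into about 11 µL; a reference agonist was the positive control; negative values mostly stem from fluorescent compounds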
# Target sequence (P07550 whole entry, looked up): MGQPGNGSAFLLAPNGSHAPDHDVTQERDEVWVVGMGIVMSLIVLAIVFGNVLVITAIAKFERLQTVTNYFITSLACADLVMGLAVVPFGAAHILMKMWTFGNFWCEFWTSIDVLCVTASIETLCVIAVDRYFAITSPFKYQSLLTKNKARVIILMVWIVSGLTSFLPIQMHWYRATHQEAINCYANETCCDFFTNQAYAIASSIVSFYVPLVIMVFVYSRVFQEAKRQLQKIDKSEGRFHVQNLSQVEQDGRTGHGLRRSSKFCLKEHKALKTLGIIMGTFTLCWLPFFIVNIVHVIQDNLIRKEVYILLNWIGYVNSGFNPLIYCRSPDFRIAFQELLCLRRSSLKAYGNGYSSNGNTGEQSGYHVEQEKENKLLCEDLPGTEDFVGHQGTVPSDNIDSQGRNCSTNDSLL
# ALR inh: blocks human ALR sulfhydryl oxidase activity. P55789. purified ALR, DTT oxidation, H2O2 HRP-luminol luminescence. inhibition, % (test concentration not listed). 3.8% of 290,000 active. AID 485317;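 active = mean and each replicate at 75% or more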;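 note: stock transfer was 7.5 nL into about 7.5 µL; 0% = neutral wells and 100% = wells with inactivated enzyme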
# An asterisk follows results filed as active; i = inactive; . = no result given; + = active, no number. This is a subset, so the mix of outcomes need not match the whole.
SMILES	Ecoli growth	UCH37 inh	LANA-H2A inh	FGF22 binding	HNF4A DNA FP	B2AR ag	ALR inh
COC(=O)c1cc(S(=O)(=O)n2nc(C)c(Br)c2C)c(Cl)cc1Cl	0.681	-5.6	-3.5	.	-1.4	34.8	5.3
Cc1cc(NCCNC2=CC(=O)CCC2)nc2ccccc12	0.682	3.4	0.9	.	-1.3	2.9	-3.1
C=CCN1C(=O)C(O)(CC(=O)c2c(C)n[nH]c2C)c2cc(Br)ccc21 (stereo unspecified)	0.697	0.6	-4.5	.	2.0	-1.5	-7.9
Cc1cc(C(=O)NNc2ccccc2F)no1	0.657	2.2	1.8	i	0.0	1.4	98.8*
CC(=O)Nc1cccc(N/C=C(\C=O)c2nc3ccccc3o2)c1	.	-0.2	1.8	.	2.9	24.5	-2.8
O=C(NCCCn1ccnc1)C(=O)NCC1OCCN1S(=O)(=O)c1ccc(F)cc1 (stereo unspecified)	0.714	2.4	5.4	i	4.5	13.7	.
O=C(COc1ccc(Cl)cc1)Nc1ccc(C(=O)NCc2cccnc2)cc1	0.627	4.2	1.9	.	-0.8	3.8	1.5
O=C(NC(Cc1c[nH]c2ccccc12)C(=O)O)c1ccccc1 (stereo unspecified)	0.734	-0.7	1.1	.	3.1	5.8	-11.1
Cc1ccc(-c2csc(N3CCC(NS(=O)(=O)c4ccc5c(c4)OCCO5)CC3)n2)cc1	0.724	2.5	2.3	.	-0.9	1.4	4.6
CC(=O)C1=CN(Cc2ccccc2)CCC1=O	0.699	5.1	.	i	0.4	-0.9	.
CC(C)(C)OC(=O)NCC1CCC(C(=O)NC[C@H](CC(=O)O)c2ccc(Cl)cc2)CC1 (stereo partly specified)	0.567	1.6	-0.4	i	-1.7	-1.9	.
Cc1ncoc1C(=O)N1CCCC(C(=O)c2ccc(C(F)(F)F)cc2)C1 (stereo unspecified)	0.722	2.7	-7.4	i	1.2	0.9	-5.3
COc1ccc(C(CCNCc2ccccc2)c2ccc(F)cc2)cc1 (stereo unspecified)	0.649	3.9	-0.8	.	2.9	16.4	-76.2
CCNC(=S)N1CCN(c2ccccc2OCC)CC1	0.679	0.4	0.2	.	0.6	5.2	.
Cc1cccc(-n2nnc(C(=O)NC3CCCc4ccccc43)c2N)c1 (stereo unspecified)	0.723	4.3	0.3	.	1.5	-8.7	10.3
COc1ccc2c(c1)C(SCC(=O)NCc1ccccc1)CC(C)(C)O2 (stereo unspecified)	0.705	1.0	-2.4	i	2.6	2.7	16.3
COc1ccc(S(=O)(=O)c2ccc(OC)cc2)cc1	0.639	2.0	2.7	.	6.7	-1.0	11.9
Cc1csc(NC(=O)c2cc3c(s2)CCC3)n1	0.636	1.0	3.2	.	4.5	4.8	6.9
CCc1noc(C)c1C(=O)N(CC)c1nc2c(C)cccc2s1	0.674	6.2	5.4	.	-1.0	5.3	-0.3
COCCCNC(=O)Cn1ncc2c(=O)oc3ccccc3c21	0.733	-1.1	0.5	.	-0.8	11.7	-2.2
Cc1ccc(C(=O)CSc2nnc(Cn3nnc4ccccc43)n2C)cc1	0.652	3.2	-0.2	i	2.7	4.9	39.7
O=C(NCCCN1CCN(CCCNC(=O)c2ccc3c(c2)OCO3)CC1)c1ccc2c(c1)OCO2	0.638	3.9	-2.9	.	-4.6	-1.4	-4.9
CCc1ccccc1NC(=O)c1nnn(CC(=O)Nc2ccccc2C)c1N	0.69	-0.2	-0.2	.	-0.8	13.0	0.5
CCCCCOC(=O)CSc1nc2c(c(=O)[nH]c(=O)n2C)n1Cc1ccc(Cl)cc1	0.768	2.3	6.2	i	2.2	15.4	-13.9
COc1ccc2c(c1)C(c1ccc([N+](=O)[O-])cc1)=NNC(c1ccco1)=N2	0.697	5.9	-4.0	i	-3.6	-15.6	.
COC(=O)CCc1c(C)[nH]c(=S)[nH]c1=O	0.684	0.4	-3.9	.	2.6	11.6	-6.7
COc1ccc(SCCN2CC[C@@H](O)CCC2=O)cc1	.	0.5	-2.3	i	-4.4	2.9	-7.1
CCOc1ccc(NS(=O)(=O)c2cc(C(=O)NCCCN3CCOCC3)ccc2C)cc1	0.663	3.3	-8.5	i	0.4	8.2	-10.5
COc1ccc2c(C)c(CCC(=O)NC3CC3)c(=O)oc2c1C	0.688	-251.2	-0.6	i	0.4	-13.8	.
CCOC(=O)C1CCC(CNCc2ccc(Cl)cc2)CC1 (stereo unspecified)	0.637	-1.2	0.9	.	1.5	-2.0	-1.6
CCC(=O)Nc1ccccc1Nc1cc(C#N)c(C#N)cc1[N+](=O)[O-]	0.736	6.7	-4.3	.	0.5	-3.0	-4.1
O=C(N/N=C/c1cc2c(cc1Br)OCO2)c1ccccn1	.	.	23.1	i	-2.4	0.0	-14.2
O=C(O)CN1C(=O)/C(=C/c2ccccc2Br)Oc2ccccc21	0.682	-112.4	-1.5	i	-12.3	-0.7	4.7
O=C(OC1CCOC1=O)c1ccc(-c2nc3ccccc3s2)s1 (stereo unspecified)	0.696	-176.0	-3.3	.	0.3	-3.5	-2.3
COC(=O)CN(C(=S)Nc1ccc(F)cc1)C1CC(=O)N(c2ccc(OC)cc2)C1=O (stereo unspecified)	0.663	1.4	-2.9	.	0.5	6.1	10.5
COC(=O)C1=C(C(=O)OC)[C@@H]2N(C)c3ccc(OC)cc3[C@@]23C[C@@H](C(=O)OC)N(C(=O)c2cccs2)C3=N1	.	41.9*	-7.0	.	-0.5	-1.1	.

# Arranged by molar mass (ascending): three of the compounds above
SMILES	Ecoli growth	UCH37 inh	LANA-H2A inh	FGF22 binding	HNF4A DNA FP	B2AR ag	ALR inh
CCC(=O)Nc1ccccc1Nc1cc(C#N)c(C#N)cc1[N+](=O)[O-]	0.736	6.7	-4.3	.	0.5	-3.0	-4.1
COc1ccc2c(c1)C(c1ccc([N+](=O)[O-])cc1)=NNC(c1ccco1)=N2	0.697	5.9	-4.0	i	-3.6	-15.6	.
CCOc1ccc(NS(=O)(=O)c2cc(C(=O)NCCCN3CCOCC3)ccc2C)cc1	0.663	3.3	-8.5	i	0.4	8.2	-10.5

# Next records:
SMILES	Ecoli growth	UCH37 inh	LANA-H2A inh	FGF22 binding	HNF4A DNA FP	B2AR ag	ALR inh
O=C(N1CCN(CCO)CC1)N1c2ccccc2CCc2ccccc21	0.663	4.2	1.2	i	2.4	0.0	.
COc1cc(NC(=S)NCCN2CCOCC2)cc(OC)c1OC	0.703	5.1	-1.1	i	3.0	8.2	-10.1
Cc1ccc(NCCN(C)C)c2c(=O)c3cc(O)ccc3sc12	.	.	.	i	52.2*	-7.0	.
Cc1ccc(S(=O)(=O)Nc2cc(C(=O)O)ccc2N2CCCCC2)cc1	0.699	3.8	-5.9	i	0.5	6.5	44.7
O=C(O)CSc1nnc(CSc2nc3ccccc3s2)n1-c1ccccc1	0.675	2.1	-2.2	i	4.9	4.7	13.1
CN(CC(=O)Nc1ccc(Cl)c(C(F)(F)F)c1)C(=O)c1ccccc1SCC(=O)N1CCCC1	0.684	0.3	.	i	0.9	-4.8	.
CCOC(=O)c1cnn(-c2ccccn2)c1N	0.786	0.8	-10.5	.	-2.2	8.3	2.2
C#CCN1N=C(c2ccc(C)cc2)CSC1=O	0.623	1.9	5.7	i	-0.1	-1.4	2.5
CCOc1cc(C(=O)NCCN2C(=O)S/C(=C\c3cccnc3)C2=O)cc(OCC)c1OCC	.	4.7	-6.4	.	1.4	-3.7	-1.2
COC(=O)c1c(S(N)(=O)=O)c2ccccc2n1C	0.68	-30.1	-1.3	.	2.9	6.3	-4.6
Cc1ccc(Cl)cc1N1CCN(S(=O)(=O)c2ccc3c(c2)CC(=O)N3C)CC1	0.723	4.2	5.6	i	0.0	-17.3	6.0
CCC(NC(=O)C1CCCC1)c1ccc(C)cc1 (stereo unspecified)	0.66	5.8	-2.0	i	-2.5	4.1	-10.6
CCc1cc2c(=O)oc(-c3ccc(F)cc3)nc2s1	0.658	-20.7	-3.0	i	1.8	2.5	27.2
Cc1ccc(-n2ncc3c(NCC4CCCO4)ncnc32)c(C)c1 (stereo unspecified)	0.785	1.9	-5.7	.	0.4	8.9	0.6
O=C(O)CC(Cc1ccccc1)(C(=O)O)c1ccccc1 (stereo unspecified)	0.625	2.8	-0.8	i	0.4	0.6	-8.1
CCCCc1nnc(NC(=O)C(C)Sc2nc(N)cc(=O)[nH]2)s1 (stereo unspecified)	0.69	4.7	-0.9	.	-0.4	7.4	1.9
NNC(=O)/C(=C\c1ccco1)NC(=O)c1ccco1	0.694	3.1	-1.6	i	1.1	-6.4	7.0
CC1CCc2nn(CC(=O)N3CCN(C(=O)c4ccco4)CC3)cc2C1 (stereo unspecified)	0.726	1.3	6.1	i	-3.0	2.3	-0.3
CC1CC(C)CN(CCCNC(=O)Cn2ncc3c(=O)oc4ccccc4c32)C1 (stereo unspecified)	0.678	1.6	1.3	i	0.9	1.9	-25.4
O=C1c2ccccc2C(=O)N1CCCCN(C(=O)c1cc([N+](=O)[O-])ccc1Cl)c1ccc(Cl)cc1	0.694	4.8	-7.0	.	-0.1	-6.1	4.8
COc1cccc(N(CC(=O)Nc2cccnc2)S(C)(=O)=O)c1	0.705	2.9	-7.6	.	-0.1	3.1	3.6
COc1ccc(NC(=O)C2CCCN(S(C)(=O)=O)C2)cc1Cl (stereo unspecified)	0.695	0.7	1.6	i	3.7	3.5	.
CCOC(=O)/C=C1/SCC(=O)N1CCOc1cccc(Br)c1	0.687	5.4	.	i	-1.0	-3.4	.
CCOc1ccccc1NC(=O)C1CCN(C(=O)C2CC(=O)N(c3ccc(C)cc3)C2)CC1 (stereo unspecified)	0.642	0.1	-2.9	i	1.2	-2.8	0.2
Cc1ccc(S(=O)(=O)Oc2ccc(/C=C3\N=C(c4cccc(C)c4)OC3=O)cc2)cc1	.	.	-2.4	.	-3.4	-2.7	0.9
CN(C(=O)CSc1nnc(CN2CCCC2)n1Cc1ccccc1)c1ccccc1	0.61	1.7	-2.9	i	3.4	-1.4	0.2
O=C(CCC(=O)N1CCN(S(=O)(=O)c2cccc(F)c2)CC1)c1cccs1	0.667	1.7	2.7	i	5.7	-0.2	-5.3
CCN(CC)C(=O)C1CC(=O)N(c2ccc(F)c(Cl)c2)C1 (stereo unspecified)	0.709	5.6	-2.1	.	-1.4	0.2	-19.7
Cc1ccc(C(=O)N2CCN(Cc3ccc4c(c3)OCO4)CC2)o1	0.739	1.7	0.8	.	-1.3	1.6	-2.8
O=C(O)Cn1c2c(c3ccccc31)CSc1ccc(Cl)cc1-2	0.702	2.8	3.4	+	1.0	-0.6	47.2
CCOC(=O)C1=C(C)Nc2ccccc2N=C1NC(=O)C1CCN(C(=O)c2ccccc2C)CC1	0.68	0.5	6.3	i	5.6	7.7	-0.9
CCCCCCCN1CCC(=O)N([C@H](CO)c2ccccc2)CC1	.	2.7	0.8	i	-0.1	-5.3	.
Cc1cc(C)n(C(=O)c2ccc(C)c(S(=O)(=O)N3CCCCC3)c2)n1	0.663	1.3	-1.6	.	-0.6	-6.4	0.9
COc1ccc(CNC(=O)c2ccc(Cl)c(S(=O)(=O)N3CCOCC3)c2)cc1OC	0.694	3.0	1.7	.	-3.3	7.5	-0.3
CCOC(=O)C1=C(C)NC(=O)NC1c1ccc(OC(=O)c2ccco2)cc1 (stereo unspecified)	0.765	-2.7	4.4	.	1.3	13.3	-10.9
CC(C)(C)NC(=O)C(c1ccc(F)cc1)N(Cc1ccco1)C(=O)Cn1nnc(-c2cccs2)n1 (stereo unspecified)	0.724	2.2	-4.5	.	3.1	-5.1	-15.0
CCCCc1nnc(SCC(=O)Nc2nccs2)n1C	0.725	0.7	3.1	i	5.9	-3.3	-19.3
